Bioassay records: PubChem BioAssay, Vanderbilt University
GIRK2 act – GIRK2 channel activation. 63,000 compounds, 0.05% hits. HEK293-GIRK2 thallium flux, Thallos fluorescence. calls only for hits at 25 µM. P48051;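 active means among the strongest 0.2% of first-round signals and kept after retests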;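 further: first round at about 10 µM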
Target sequence (P48051 whole entry, looked up): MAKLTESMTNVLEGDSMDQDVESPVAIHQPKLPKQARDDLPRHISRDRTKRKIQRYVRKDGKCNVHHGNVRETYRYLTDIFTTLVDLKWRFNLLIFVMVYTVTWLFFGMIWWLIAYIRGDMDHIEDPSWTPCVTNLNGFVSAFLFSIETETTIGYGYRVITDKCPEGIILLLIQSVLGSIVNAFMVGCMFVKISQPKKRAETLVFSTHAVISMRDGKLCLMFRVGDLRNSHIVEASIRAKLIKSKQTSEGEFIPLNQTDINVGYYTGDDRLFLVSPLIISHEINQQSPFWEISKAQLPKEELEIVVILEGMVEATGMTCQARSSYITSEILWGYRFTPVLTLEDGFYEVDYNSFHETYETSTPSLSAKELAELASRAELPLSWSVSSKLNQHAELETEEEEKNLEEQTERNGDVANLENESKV
Calls only; i = inactive. These rows are one share of the data; count on the stated rates, not on these rows.

SMILES | GIRK2 act
COC(=O)Nc1ccc(C)c(N2CCCC2=O)c1 | i
COc1ccc(/C=C/c2nc(C#N)c(N3CCN(C(=O)c4ccc(OC)cc4)CC3)o2)cc1 | i
O=C(Cc1c(F)cccc1Cl)N1CCC(Cn2ccnc2)CC1 | i
Cc1cccc(-n2ncc3c(=O)n(CC(=O)N4CCC(C)CC4)cnc32)c1C | i
CC(C)NC(=O)Cn1c(=O)c2oc3ccccc3c2n(Cc2ccc(C#N)cc2)c1=O | i
CCc1ccc(S(=O)(=O)NCc2cc(C)oc2C)cc1 | i
Cc1cc(C)n(-c2ccc(=O)n(CCNC(=O)/C=C/c3cccs3)n2)n1 | i
COC(=O)CN1N=C(C(=O)N2CCCC2)S(=O)(=O)c2ccccc21 | i
Cn1c(=O)n(CC(N)=O)c(=O)c2c1nc1n2CCCN1CCc1ccccc1 | i
COCCNC(=O)NCC1CCN(C(=O)c2ccoc2)CC1 | i
Cc1ccc(-c2csc3c(=O)[nH]c(N4CCCC(C(=O)NCc5ccccc5F)C4)nc23)cc1 (centres undefined) | i
COc1ccc2cc(-c3c(-c4ccncc4)nc(-c4ccc(S(C)(=O)=O)cc4C)n3C)ccc2c1 | i
Cc1ccc(NC(=O)CN2CCC(C(=O)NCCn3nc(-c4ccco4)ccc3=O)CC2)c(C)c1 | i
COc1ccc(S(=O)(=O)N2CCCCC2CC(=O)NCCCc2ccccc2)cc1 (centres undefined) | i
CCOc1ccc(Nc2cc(C(=O)N3CCSCC3)nc3cc(OC)c(OC)cc23)cc1 | i
Cc1nc(-c2ccccc2F)sc1CNC(=O)c1c(-c2ccccc2Cl)noc1C | i
Cc1nc2sc(C)c(C)n2c(=O)c1NC(=O)COc1ccc(Cl)cc1Cl | i
COc1ccc(-c2cc3c(SCC(=O)Nc4cc(Cl)ccc4OC)nccn3n2)cc1 | i
O=C(c1csc(-c2ccccc2)n1)N1CCN(c2cc(N3CCOCC3)ncn2)CC1 | i
Cc1cccc(Cn2c(=O)c3c(nc4n(CCO)c(C)c(C)n34)n(C)c2=O)c1 | i
Cc1nc(C)c(CNC(=O)Nc2ccc(F)c(Cl)c2)s1 | i
Cn1c(=O)c2c(nc(N3CCCCC3)n2CC(=O)NN)n(C)c1=O | i
CC(=O)c1ccc(C(=O)Nc2nnc(-c3cccs3)o2)cc1 | i
CC(C)S(=O)(=O)c1ccc(CC(=O)N2CCC(Oc3ncccc3Cl)CC2)cc1 | i
CC(=O)Oc1ccc2c(=O)c(-c3ccc(Br)cc3)coc2c1 | i

17 entries from above, as comma-separated lines:
Structure,GIRK2 act
COC(=O)Nc1ccc(C)c(N2CCCC2=O)c1,i
COc1ccc(/C=C/c2nc(C#N)c(N3CCN(C(=O)c4ccc(OC)cc4)CC3)o2)cc1,i
O=C(Cc1c(F)cccc1Cl)N1CCC(Cn2ccnc2)CC1,i
Cc1cccc(-n2ncc3c(=O)n(CC(=O)N4CCC(C)CC4)cnc32)c1C,i
CC(C)NC(=O)Cn1c(=O)c2oc3ccccc3c2n(Cc2ccc(C#N)cc2)c1=O,i
CCc1ccc(S(=O)(=O)NCc2cc(C)oc2C)cc1,i
Cc1cc(C)n(-c2ccc(=O)n(CCNC(=O)/C=C/c3cccs3)n2)n1,i
COC(=O)CN1N=C(C(=O)N2CCCC2)S(=O)(=O)c2ccccc21,i
Cn1c(=O)n(CC(N)=O)c(=O)c2c1nc1n2CCCN1CCc1ccccc1,i
COCCNC(=O)NCC1CCN(C(=O)c2ccoc2)CC1,i
Cc1ccc(-c2csc3c(=O)[nH]c(N4CCCC(C(=O)NCc5ccccc5F)C4)nc23)cc1 (centres undefined),i
COc1ccc2cc(-c3c(-c4ccncc4)nc(-c4ccc(S(C)(=O)=O)cc4C)n3C)ccc2c1,i
Cc1ccc(NC(=O)CN2CCC(C(=O)NCCn3nc(-c4ccco4)ccc3=O)CC2)c(C)c1,i
COc1ccc(S(=O)(=O)N2CCCCC2CC(=O)NCCCc2ccccc2)cc1 (centres undefined),i
CCOc1ccc(Nc2cc(C(=O)N3CCSCC3)nc3cc(OC)c(OC)cc23)cc1,i
Cc1nc(-c2ccccc2F)sc1CNC(=O)c1c(-c2ccccc2Cl)noc1C,i
Cc1nc2sc(C)c(C)n2c(=O)c1NC(=O)COc1ccc(Cl)cc1Cl,i

Later entries:
SMILES | GIRK2 act
COc1ccc(C2(C)NC(=O)N(CC(=O)Nc3ccc(Cl)c(Cl)c3)C2=O)cc1 (centres undefined) | i
CCOc1ccccc1-c1noc(Cn2c(=O)n(Cc3ccc(C)cc3)c(=O)c3ccccc32)n1 | i
COc1ccc(/C=C2\Oc3cc(OCC(=O)OC(C)C)ccc3C2=O)c(OC)c1OC | i
CN(C)S(=O)(=O)c1ccc(C(=O)N2CC(Oc3nc4c(C(F)(F)F)cccc4s3)C2)cc1 | i
Cc1ccc(SCCCC(=O)Nc2cccc3c2C(=O)NC3=O)cc1 | i
Cc1cc(C)c(NC(=O)Cn2c(=O)c3ccccc3c3ccccc3c2=O)c(C)c1 | i
NS(=O)(=O)c1ccc(NC(=O)CCCN2C(=O)c3cccc4cccc(c34)C2=O)cc1 | i
Cc1cc(C(F)(F)F)nc(CCNC(=O)c2cc3ccccc3o2)n1 | i
CC(C)(C)C1CCc2c(sc3nc(CCC(=O)N4CCc5ccccc5C4)[nH]c(=O)c23)C1 (centres undefined) | i
O=C(Nc1ccc(Cl)c2ncsc12)c1ccc(Br)cc1 | i
COCCN1CCC(NC(=O)c2cc(-c3ccco3)on2)CC1 | i
COc1cccc(C(=O)Nc2ccc3c(c2)CCC(=O)N3CCC(C)C)c1 | i
Cc1cccc(Nc2nc(CC(=O)N3CCC(C(N)=O)CC3)cs2)n1 | i
COc1ccc(CNC(=O)NCC(c2cn(C)c3ccccc23)N(C)C)cc1 (centres undefined) | i
C=C(C)CN1CCN(c2cc(C)nc3c(C)c(-c4ccc(OC)c(OC)c4)nn23)CC1 | i
CCc1ccccc1NC(=O)NCCNc1cc(Nc2cc(C)ccn2)ncn1 | i
CS(=O)(=O)N1CCC(C(=O)NCC#CCOc2ccc3c(c2)OCO3)CC1 | i
CCc1nc(OCC(=O)NCc2ccccc2)c2ccccc2n1 | i
O=C(c1cnccn1)N1CCC(c2nnc(C3CC3)o2)CC1 | i
C#CCn1c(=NC(=O)CC)sc2cc(F)ccc21 | i
CCCNC(=O)Cn1c2ccc(NC(=O)CC)cc2c(=O)n1-c1ccccc1 | i
COC(=O)c1cn[nH]c1S(=O)(=O)Nc1ccc(Br)cc1 | i
COc1ccc(S(=O)(=O)NCCNC(=O)c2ccc(NC(=O)C3CC3)cc2)cc1C | i
CC1CCC2(NC1)OC1C(=O)C3C4CCC5CC(O[C@@H]6O[C@H](CO)[C@@H](O)[C@H](O)[C@H]6O[C@@H]6O[C@@H](C)[C@H](O)[C@@H](O)[C@H]6O)CCC5(C)C4CCC3(C)C1C2C (some centres undefined) | i
CC(C)(C)c1cc(NC(=O)c2nnn(-c3ccc(C(F)(F)F)cc3)n2)on1 | i
Carrying on.
SMILES | GIRK2 act
CC(=O)CCCCn1cnc2c1c(=O)n(C)c(=O)n2C | i
O=C(c1ccc(N2C(=O)C3CCCCC3C2=O)cc1)N1CCN(c2cccc(C(F)(F)F)c2)CC1 (centres undefined) | i
COC(=O)c1ccc(NC(=O)C(=O)NCCc2cccc(OC)c2)cc1 | i
COc1cccc(OC)c1C(=O)N1c2ccccc2CC1C(N)=O (centres undefined) | i
CCSc1nnc(NC(=O)c2cc3n(n2)CCCO3)s1 | i
CCn1c(=O)c2c(nc3n(-c4cccc(OC)c4)c(-c4ccccc4)cn23)n(C)c1=O | i
Cc1noc(-c2ccc(NC(=O)C3(c4ccccc4)CCOCC3)cc2)n1 | i
COc1ccc(NC(=O)C2CCCC2)cc1N1CCCCC1=O | i
O=C(Nc1ccc(F)cc1)N1CCCSCC1CN1CCCC1 (centres undefined) | i
Cc1ccc(S(=O)(=O)N2CCC(c3nc(-c4ccccc4Br)no3)CC2)cc1C | i
CCCS(=O)(=O)N1CCc2ccc(NC(=O)NCc3cccs3)cc2C1 | i
C=CCN1CC(c2nc3ccccc3n2Cc2ccc(C(C)C)cc2)CC1=O (centres undefined) | i
Cc1ccccc1NC(=O)NCC1CCN(Cc2ccsc2)CC1 | i
O=C(/C=C/c1ccco1)NCCC(O)c1cccc2ccccc12 (centres undefined) | i
COc1ccccc1-c1cc(C(=O)NCC2CCC(c3nc4ccccc4n3C)CC2)[nH]n1 (centres undefined) | i
CCOC(=O)C1=C(C)Nc2ncnn2C1/C(C)=C/c1ccccc1 (centres undefined) | i
Cc1ccc(N2CCC(C(=O)Nc3nc4ccc(S(C)(=O)=O)cc4s3)CC2)nn1 | i
O=C1c2c(O)cc(O)cc2O[C@H](c2ccc(O)c(O)c2)[C@H]1O | i
CC(=O)OC1C(O)C2C(C)C3=CC(=O)OC3(O)CC2C2(C)CCCC(C)(C)C12 (centres undefined) | i
O=C(OCc1ccccn1)c1cn(-c2cccc(F)c2)c(=O)c2ccccc12 | i
COc1ccc(Nc2nnc(Cc3ccccc3)c(=O)[nH]2)cc1OC | i
Cc1ccc2nc(C3CN(C(=O)Cc4ccc(Cl)cc4)C3)[nH]c2c1 | i
CCN(Cc1ccccc1)C(=O)c1cn(-c2ccc(C)cc2)nn1 | i
Cc1c(-c2nc(-c3ccccc3Cl)no2)sc2ncn(CC(=O)N3CCC(C)CC3)c(=O)c12 | i
CC(=O)Nc1ccc(C(=O)NCC#CCN2CCc3ccccc3C2)cc1 | i
More compounds follow:
SMILES | GIRK2 act
Cc1cn2c3c(=O)n(CCN4CCOCC4)c(=O)n(C)c3nc2n1-c1ccccc1 | i
CC(=O)c1ccc(NC(=O)CSc2nnc(-c3cccnc3)o2)cc1 | i
COCCN(Cc1ccoc1)C(=O)NCCc1ccc(OC)cc1 | i
Cc1ccc(C(O)CNC(=O)C(=O)Nc2ccc3c(c2)N(S(=O)(=O)c2cccs2)CCC3)o1 (centres undefined) | i
COCCNC(=O)N1CC(=O)Nc2ccccc21 | i
CCn1c(=O)c2c(nc3n(-c4ccccc4N)c(C)cn23)n(C)c1=O | i
CSc1cccc(NC(=O)Cn2ccc3ccccc32)c1 | i
Cc1ccc(C2c3c(oc4ccc(Cl)cc4c3=O)C(=O)N2c2ccccn2)cc1 (centres undefined) | i
Cn1nc(-c2ccc(F)cc2)cc1C(=O)NCC1(CO)CC1 | i
Cc1ccc(N/C=C(\C#N)c2nc3ccccc3[nH]2)cc1 | i
CC(=O)c1cccc(NC(=O)Cn2cnc(-c3ccccc3)cc2=O)c1 | i
COc1ccc(N2Cc3cc(Br)ccc3OCC2=O)cc1F | i
Cc1nc2ccccn2c1C(=O)N1CCC(c2ccccc2)C1 (centres undefined) | i
O=S(=O)(NCCOc1ccc2c(c1)OCO2)c1ccc(F)c(Cl)c1 | i
CCC(Sc1ncc(S(=O)(=O)c2ccccc2)c(=O)[nH]1)C(=O)Nc1ccc(C(C)C)cc1 (centres undefined) | i
Cc1ccc(N2CCN(C(=O)c3cccc(N4CCCS4(=O)=O)c3)CC2)c(C)c1 | i
COC(=O)c1ccc2c(=O)n(CCCC(=O)N3CCOCC3)c(=S)[nH]c2c1 | i
O=C1CN(C(=O)c2csc(-c3cnccn3)n2)CCN1 | i
CCOc1ccc(C(=O)Nc2ccc3c(c2)CCC(=O)N3CCC(C)C)cc1OCC | i
CCCCCn1c(=S)[nH]c2cc(C(=O)NCCCN3CCCC3=O)ccc2c1=O | i
COc1cccc(NS(=O)(=O)c2ccc(CN3C(=O)c4ccccc4C3=O)cc2)c1 | i
CC(C(=O)NC1CCCC1)n1nc(-c2ccc3c(c2)OCO3)ccc1=O (centres undefined) | i
COC1(CNC(=O)c2ccc(OC(F)(F)F)cc2)CCSC1 (centres undefined) | i
Cc1ccc(-n2cc(C(=O)N3CCC(NC(=O)C4CCCCC4)CC3)nn2)cc1C | i
O=C(NCC1CCN(S(=O)(=O)c2cccnc2)CC1)c1ccc(F)c(F)c1 | i
Remaining list, next part.
SMILES | GIRK2 act
COc1cc(OC)cc(C(=O)NCCC(O)c2ccccc2)c1 (centres undefined) | i
CN(CC(=O)NC1CC1)S(=O)(=O)c1ccc(C(=O)NCC2CCCO2)o1 (centres undefined) | i
O=S(=O)(c1ccccc1)c1nc(S(=O)(=O)c2ccc(Cl)cc2)c(N2CCOCC2)s1 | i
COc1ccc(CC(=O)Nc2cc(N3CCOCC3)ncn2)cc1OC | i
CCCn1cc(SCC(=O)N2N=C(c3ccc(OC)cc3)CC2c2ccc(F)cc2)c2ccccc21 (centres undefined) | i
CC1CCN(c2nc3nc(SCC(=O)Nc4ccccc4Cl)n(C(C)C)c(=O)c3s2)CC1 | i
O=C1NC(=O)C(c2cccc(Cl)c2)=C1Nc1ccc(Cl)c(C(=O)O)c1 | i
Cc1ccc(-n2nnnc2CN2CCN(C(=O)NC(C)(C)C)CC2)cc1 | i
COc1cc(-n2c(=O)c3ccccc3n(CC(=O)NCCc3ccccc3)c2=O)cc(OC)c1OC | i
N#Cc1nc(-c2cccc(Cl)c2)oc1N1CCN(C(=O)c2ccc(Cl)cc2)CC1 | i
O=C(NCc1ccc2c(c1)OCO2)C1CCN(c2ccc(-c3ccco3)nn2)CC1 | i
COc1ccc(C(=O)Nc2ccc3c(c2)CCC(=O)N3)cc1 | i
Cc1ccc(CN2CCc3ncn(CC(=O)NCc4ccccc4)c(=O)c3C2)cc1 | i
COC(=O)Cn1c(=O)c2c(nc3n2CCN3c2ccc(C)cc2C)n(C)c1=O | i
O=C(c1ccccc1SC(F)F)N1CCN(Cc2nnnn2-c2ccc(F)cc2)CC1 | i
Cc1c(C)n2c3c(=O)[nH]c(=O)n(C)c3nc2n1CCN1CCN(CC(=O)c2ccccc2)CC1 | i
Cc1oc2cc(OCC(=O)O)ccc2c(=O)c1-c1ccc(Cl)cc1 | i
COc1ccc(C[C@H](C)NC[C@@H](O)c2ccc(O)c(NC=O)c2)cc1 | i
O=C(NCC1(c2cccs2)CCOCC1)c1ccc(-c2ccccc2)cc1 | i
O=C(NCCC(O)c1cccs1)C(=O)Nc1ccc(OC(F)(F)F)cc1 (centres undefined) | i
O=C(CSCc1ccccc1)Nc1cnoc1 | i
COCCN(CCOC)C(=O)c1cnc2c(c(C)nn2-c2ccccc2)c1Cl | i
O=C(CN1CCCN(Cc2ccccc2)S1(=O)=O)N1CCN(c2ccc(F)cc2)CC1 | i
O=C(Nc1ccc(OC(F)(F)F)cc1)N1CCN(c2cc(N3CCCC3)ncn2)CC1 | i
Cc1nn(-c2ccccc2)c2ncc(C(=O)N3CCN(C(=O)c4ccco4)CC3)c(Cl)c12 | i
